RE007 growth inh = less growth of the S. pombe RE007 Vpr strain. S. pombe RE007 Vpr strain, BacTiter-Glo ATP luminescence, 24 h; control for the full effect not named in the record. Potency, µM (doses to about 92.2 µM), for the others: at the top dose activity change, negative = less growth. hit rate 0.21% among 360,000; active = well fitted falling curve with a large enough effect; inconclusive = small, poorly fitted or top-dose-only effect; inactive = no such curve, though single readings can be large or run the other way;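 also: % is scaled to controls: 0 for no effect and ±100 for the full control effect; nearly all actives have a fitted effect of over 50% in size; the assay follows cell death caused by Vpr and the record does not say whether a fall means rescue or toxicity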
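Fission yeast RE007 carrying one integrated HIV-1 vpr copy, seeded at OD 0.01 in PMG+AL medium with 23 nL pinned compound. Grown 24 h at 30 degrees; viability read by BacTiter-Glo luminescence after 5 min.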
SARS PLP yeast = SARS-CoV PLP inhibition in yeast. S. cerevisiae expressing SARS-CoV PLpro, growth rescue; control for the full effect not named in the record. Potency, µM (titrated, usually from 32.9 µM), inactives show at the highest dose activity, positive = growth rescue. hit rate 0.19% among 330,000. AID 485353; active means well fitted rising curve with a large enough effect; inconclusive means small, poorly fitted or top-dose-only effect; inactive means no such curve, though single readings can be large or run the other way; also: 0% is about no effect; nearly all actives have a fitted effect of over 55% in size; growth read by luminescence after 48 h
Marburg entry inh = inhibitors of Marburg virus binding or cell entry; AID 540276; Marburg virus pseudotyped entry inhibition, cell reporter; control for the full effect not named in the record; about a third of the inactives were read at about 46 µM; hit rate 1.8% among 300,000; Potency, µM (top dose mostly 37.8 µM), inactives show at the highest dose activity change, negative = inhibition, hits mostly inhibitors; active = well fitted inhibition curve with a large enough effect; inconclusive = small, poorly fitted or top-dose-only effect, or effect the other way; inactive = flat fitted curve, though single readings scatter; tested in HEK293 cells; about a fifth of its hits are not listed in these tables; also: % is scaled to controls: 0 for no effect and ±100 for the full control effect; luciferase read-out
Cruzain noTriton = blocks cruzain activity in detergent-free assay. purified cruzain, Z-FR-AMC fluorescence, no detergent. hit rate 2.3% among 200,000. Potency, µM, inactives show max response, negative = inhibition, hits mostly inhibitors;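 also: plate controls were enzyme without inhibitor for no effect and buffer without enzyme for full effect; nearly all actives have a fitted effect of over 40% in size; top concentration of the series not given in the record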
Target sequence (P25779 123-467 limits assumed): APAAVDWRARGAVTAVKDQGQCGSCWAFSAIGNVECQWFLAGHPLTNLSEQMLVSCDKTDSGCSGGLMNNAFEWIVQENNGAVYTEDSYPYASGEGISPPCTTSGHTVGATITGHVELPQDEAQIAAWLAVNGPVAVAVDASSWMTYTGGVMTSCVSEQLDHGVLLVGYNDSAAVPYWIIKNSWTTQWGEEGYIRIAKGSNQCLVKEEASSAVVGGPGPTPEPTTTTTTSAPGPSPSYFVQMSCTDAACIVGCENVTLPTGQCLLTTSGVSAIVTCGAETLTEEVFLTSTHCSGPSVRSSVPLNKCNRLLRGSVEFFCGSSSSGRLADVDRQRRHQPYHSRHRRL
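Purified cruzain at 1.5 nM, pre-incubated 15 min with compound at room temperature in 100 mM sodium acetate pH 5.5, 5 mM DTT, 0.00005% Triton X-100. Reaction started with 2 uM Z-FR-AMC; AMC fluorescence increase over 60 s gives rate.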
NS1 function inh = inhibitors of influenza NS1 protein function; S. cerevisiae slowed by influenza A NS1, growth recovery by OD600; Potency, µM (titrated, usually from 46.1 µM), without a hit: top-dose activity, positive = more growth; hit rate 0.4% among 270,000; AID 2326; active means well fitted rising curve with a large enough effect; inconclusive means small, poorly fitted or top-dose-only effect; inactive means no such curve, though single readings can be large or run the other way; also: nearly all actives have a fitted effect of over 50% in size
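OD600 was taken as the measure of yeast growth restored by compound in an NS1-expressing S. cerevisiae strain. Cells had been washed out of glucose medium and diluted 1:100 into galactose -URA medium, pH 6.0.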
Lassa entry inh = Lassa virus entry inhibition. Lassa virus pseudotype entry inhibition, cell reporter; control for the full effect not named in the record. Potency, µM (titrated, usually from 37.9 µM), for inactives: at the highest dose activity change, negative = inhibition, most hits filed as inhibitors. hit rate 1.2% among 300,000. AID 540256; active means well fitted inhibition curve with a large enough effect; inconclusive means small, poorly fitted or top-dose-only effect, or effect the other way; inactive means flat fitted curve, though single readings scatter; tested in HEK293 cells; also: % is scaled to controls: 0 for no effect and ±100 for the full control effect; nearly all actives have a fitted effect of over 50% in size; luciferase read-out
2A StopGo = FMDV 2A StopGo reporter, luciferase signal; human cells with a luciferase reporter of 2A StopGo recoding; control for the full effect not named in the record; Potency, µM (titrated, usually from 57.9 µM), without a hit: at the highest dose signal change, negative = less light; hit rate 1.2% among 410,000; AID 1159524; active = well fitted falling curve with a large enough effect; inconclusive = small, poorly fitted or top-dose-only effect; inactive = no such curve, though single readings can be large or run the other way; tested in HEK293T cells; also: % is scaled to controls: 0 for no effect and ±100 for the full control effect; nearly all actives have a fitted effect of over 45% in size; luciferase light after 4 h
Cruzain Triton = inhibitors of Trypanosoma cruzi cruzain with detergent; hit rate 0.43% among 200,000; P25779; Potency, µM, without a hit: max response, negative = inhibition, usual class: inhibitors; AID 1478; purified cruzain, Z-FR-AMC fluorescence, 0.01% Triton;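 also: plate controls were neutral wells for no effect and buffer without enzyme for full effect; nearly all actives have a fitted effect of over 40% in size; top concentration of the series not given in the record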
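Enzyme 1.5 nM, Z-FR-AMC 2 uM, NaOAc 100 mM pH 5.5, DTT 5 mM, Triton X-100 0.01%; 15 min RT compound preincubation; kinetic ex360/em450, 60 s delta.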
Starred values were filed as active, the others as inactive; ? = inconclusive; . = not tested or not shown; & = joins results of further samples; [ ] = another dose, or the depositor's remark. Unless noted, calls follow the shape of the dose curve; as a rule, active = well fitted curve in the direction sought with a large enough effect; inconclusive = small, poorly fitted or top-dose-only effect, or another doubt; inactive = no such curve, though single readings can be large; an effect the other way counts as inactive or inconclusive. Potency is read from the fitted curve at half-maximal effect. An unsorted share of the library. About 4.7% of those tested had a hit in this group.

No.	smiles	RE007 growth inh	SARS PLP yeast	Marburg entry inh	Cruzain noTriton	NS1 function inh	Lassa entry inh	2A StopGo	Cruzain Triton
1	CC1CCCN(C2=NC(=O)/C(=C/c3cn(-c4ccccc4)nc3-c3cccc(S(=O)(=O)N(C)C)c3)S2)C1 (stereo unspecified)	12%	2%	5%	29%	4%	-14%	4%	-1.9%
2	Cc1ccc(NC(=O)CCNC(=O)c2ccc(Cl)cc2)nc1	5%	1%	?	.	-6%	6%[46.1 µM]	38%[activator]	.
3	O=C(CN1CCCN(S(=O)(=O)c2ccc(F)cc2)CC1)Nc1cccc(F)c1	-15%	0%	-1%[46.1 µM]	.	-12%	-5%	-4%	.
4	CCOc1ccc(CN(C(=O)c2cc(=O)c3cc(Cl)ccc3o2)C2CCS(=O)(=O)C2)cc1 (stereo unspecified)	.	.	-13%[46.1 µM]	?	.	13%[46.1 µM]	-18%	-1.6%
5	c1csc(-c2ncc3ccccn23)c1	-4%	-17%	9%	-10%	-1%	-1%	10%	4.3%
6	CN(C)CCC1c2ccc(Cl)cc2CCc2cccnc21 (stereo unspecified) (tested in a mixture with another compound)	-5%	1%	?	.	4%	?	24%	.
7	Nc1c(C(=O)Nc2ccc(Cl)cc2)oc2ccccc12	7%	-9%	.	2%	-65%	.	10%	-11%
8	Cc1ccc(OCC(=O)Nc2ccc3oc(=O)ccc3c2)cc1C	-7%	1%	9%[46.1 µM]	.	-29%	-23%[46.1 µM]	-14%	.
9	O=C(c1cc2nc(-c3ccc(Cl)cc3)cc(C(F)(F)F)n2n1)N1CCOCC1	-15%	0%	13%	.	-3%	1%	-1%	.
10	CCCCCCN(C(=O)CCCCCN1C(=O)NC(c2ccc(-c3ccccc3)cc2)C(C(=O)OCc2ccccc2)=C1C)C(C(=O)NCCCC)c1ccc(O)cc1 (stereo unspecified)	.	10%	?	6.3µM*	17%	?	.	-1.0%&2.9%
11	CCOC(=O)c1cc2c(=O)n3ccccc3nc2n(C(C)C)c1=NC(=O)c1c(-c2ccccc2Cl)noc1C	-6%	-7%	14%[46.1 µM]	.	.	-11%	-13%	.
12	C=CCC(CC=C)(CNC(=O)C(=O)Nc1ccc(C)cc1)c1ccccc1	.	.	13%[46.1 µM]	-2%	.	?	13%	0.0%
13	Cc1ccc(Sc2c(C)[nH]n(C(C)(C)C)c2=O)cc1	9%	-32%	23%	5%	-82%	2%	-14%	4.9%
14	O=C(NC(O)C(=O)c1ccccc1)c1cccs1 (stereo unspecified)	10%	2%	.	-11%	5%	.	6%	0.2%
15	CCOC(=O)C1CCN(C(=O)c2ccccc2NC(=O)c2ccc(Br)cc2)CC1	4%	0%	7%	2%	-1%	-13%	50%[activator]	-0.2%
16	CCCCC(=O)NNC(=O)N1c2ccccc2Sc2ccccc21	?	0%	-1%[46.1 µM]	.	-13%	-13%[46.1 µM]	-4%	.
17	Cn1cc2ccc(N)cc2n1	-2%	1%	0%	.	4%	10%	-3%	.
18	O=c1c2ccccc2[nH]c(=S)n1Cc1cccnc1	-2%	8%	-19%	-12%	3%	-6%	.	1.9%
19	COc1ccc(Br)cc1/C=N/NC(=O)c1ccc(OC)c(OC)c1	5%	-2%	?	.	-14%	?	?	.
20	O=C(COC(=O)CCSc1ccccc1)NCc1ccccc1	3%	-2%	?	.	.	-25%	40%[activator]	.
21	COc1cccc(C(=O)N2CCN(C3CCN(Cc4ccccc4)CC3)CC2)c1	.	0%	.	0%	3%	.	.	0.4%
22	CCNc1sc(C(=O)c2cccs2)c(N)c1-c1nc2ccccc2s1	-22%	-6%	?	7.9µM*	-9%	?	4%	2.6%
23	COc1cccc(NC(=O)CCN2CCN(C)CC2)c1	4%	4%	4%	3%	-1%	?	-15%	3.7%
24	Cc1ccc(NC(=O)CCC(=O)c2cc(C)sc2C)nc1	5%	1%	9%[46.1 µM]	.	.	1%	13%	.
25	COC(=O)c1cc2n(n1)CCN(Cc1ccccc1F)C2=O	14%	2%	-27%	7%	8%	1%	5%	0.9%
26	CC(C)=C1SC(N2CCN(c3ccc(C)c(Cl)c3)CC2)=NC1=O	4%	0%	?	.	2%	-6%	-25%	.
27	CC(=O)C1=C(C)NC(SCC(=O)c2ccc(F)cc2)=C(C#N)C1CC(C)C (stereo unspecified)	-15%	12%	-21%	8%	?	?	-14%	-7.6%
28	COc1ccc(OC)c(C(=O)/C=C/c2cccnc2)c1	-14%	-39%	?	.	-12%	?	?	.
29	CCCNC(=O)Cc1c(OC)ccc2cc(Br)ccc12	0%	-20%	?	1%	-10%	?	0%	-2.4%
30	CCS(=O)(=O)c1ccc2oc(Nc3cc(Cl)ccc3OC)nc2c1	-7%	3%	-4%[46.1 µM]	.	8%	-11%	12%	.
31	O=C(Nc1ccc(-c2nc3ccccc3[nH]2)cc1)c1c(F)c(F)c(F)c(F)c1F	4%	-1%	-2%[46.1 µM]	.	7%	14%[46.1 µM]	19%	.
32	Cc1ccc2c(=O)oc(N(C)C)nc2c1	-17%	0%	6%[46.1 µM]	.	6%	11%	-29%	.
33	COc1cccc(NC(=O)c2ccc3c(c2)OCO3)c1	?	-21%	.	.	-12%	.	19%	.
34	N#CC1=C(N)SC(N)=C(C#N)C1c1ccnc2ccccc12	-5%	3%	7%	-26%	1%	-1%	2%	-12%
35	CCCCOc1ccc(S(=O)(=O)Nc2ccc(-c3ccc(N4CCC(C)CC4)nn3)cc2)cc1	.	.	.	?	.	14%[46.1 µM]	10%	-3.0%
36	CNC(=S)NN=C(C)CCCC(C)=NNC(=S)NC	-12%	.	-21%	.	.	?	-21%	.
37	COc1ccc(N(Cc2cc3ccccc3[nH]c2=O)S(=O)(=O)c2ccccc2)cc1	-6%	1%	.	.	-17%	.	-16%	.
38	CCc1cc2c(=O)c(-c3ccc4c(c3)OCCO4)c(C)oc2cc1OS(C)(=O)=O	-1%	-13%	?	3%	14%	?	?	-4.7%
39	Cc1cc(OCC(=O)Nn2cnnc2)ccc1Br	9%	5%	-7%&-7%	20%	0%	11%	11%	-4.8%
40	O=C(NCc1cccc(Cl)c1)c1ccncc1	-1%	-2%	.	.	-8%	.	-19%	.
41	CCC(CC)C(=O)Nc1nnc(S(=O)(=O)N2CCCc3ccccc32)s1	-5%	2%	.	.	8%	.	-23%	.
42	Cn1c(=O)n(Cc2ccco2)c(=N)c2c3c(sc21)CCCC3	-9%	0%	-3%	.	1%	6%	-17%	.
43	COc1ccc(NC(=O)C2CCN(S(=O)(=O)c3cccc(-c4noc(C)n4)c3)CC2)cc1OC	.	.	.	2%	.	2%[46.1 µM]	-30%	1.8%
44	Cn1cccc1/C=N/NC(=O)C(O)c1ccccc1 (stereo unspecified)	-3%	0%	.	.	7%	.	93%[activator]	.
45	COc1ccc(NC(=O)Cn2nnc(C(=O)NCc3cccs3)c2N)cc1OC	-3%	8%	.	.	-12%	.	?	.
46	O=C(Nc1ccccc1OC(F)F)c1ccc(Br)o1	-8%	-12%	6%	8%	-33%	0%	3%	2.1%
47	O=c1cc(CN2CCN(c3cccc(Cl)c3)CC2)c2cc(O)c(-c3ccccc3)cc2o1	9%	1%	-3%	7.9µM*	6%	4%	-13%	3.8%
48	CN(Cc1ccccc1)C(=C(Cl)Cl)C(=C1NCCN1)[N+](=O)[O-]	-1%	-3%	1%[46.1 µM]	.	.	1%	-3%	.
49	O=S(=O)(c1ccc2ccccc2c1)N1CCN(S(=O)(=O)N2CCOCC2)CC1	-19%	.	-3%	16%	-8%	-26%	?	4.7%
50	Cc1ccc(C)c(OCc2n[nH]c(=S)o2)c1	-17%	0%	1%[46.1 µM]	.	-5%	9%	-17%	.

Additional entries:
No.	smiles	RE007 growth inh	SARS PLP yeast	Marburg entry inh	Cruzain noTriton	NS1 function inh	Lassa entry inh	2A StopGo	Cruzain Triton
51	COC(=O)c1ccccc1NC(=O)c1cnc2sccn2c1=O	-16%	5%	12%&0%	-13%	-16%	?	-3%	1.5%
52	CC[n+]1c(C)cc(C)n1-c1ccccc1	-17%	4%	-1%[46.1 µM]	.	.	-5%[46.1 µM]	-3%	.
53	O=C(NCc1ccc2c(c1)OCO2)c1ccc2c(c1)OCCO2	18%	3%	?	-7%	-4%	1%	45%[activator]	4.5%
54	O=C(Nc1ccc2c(c1)OCCO2)c1cccc(Cl)c1Cl	6%	-11%	.	.	-26%	.	0%	.
55	CCCC(C(=O)n1nc(C)cc1C)C(NS(=O)(=O)c1ccc(C)cc1)c1ccccc1 (stereo unspecified)	-13%	5%	?	6%	-5%	?	?	-8.1%
56	O=C(CSc1nc2ncc(Cl)cc2[nH]1)c1c[nH]c2ccccc12	16%	1%	?	.	2%	?	-23%	.
57	Cc1n[nH]c(=O)c2c(NC(=O)CSc3c(Cl)cccc3Cl)oc(C)c12	5%	-6%	13%	.	.	-14%	-22%	.
58	COc1ccccc1C=Cc1ccnc2ccccc12	-26%	.	-27%	.	.	?	32%[activator]	.
59	Cc1cc(C(=O)CSc2nnc(-c3ccco3)o2)c(C)n1CC1COc2ccccc2O1 (stereo unspecified)	-6%	-7%	?	?	?	1%	?	0.6%
60	O=C(Cn1c(=O)n(Cc2ccco2)c(=O)c2ccccc21)Nc1cccc(F)c1	.	.	-2%[46.1 µM]	-19%	.	-5%[46.1 µM]	-13%	-9.5%
61	O=C1CC(SC(=Nc2ccccc2)Nc2ccccc2)C(=O)N1c1cccc(Cl)c1 (stereo unspecified)	-13%	1%	?	0%	19%	?	0%	-2.0%

Bioassay records deposited in PubChem by National Center for Advancing Translational Sciences (NCATS).
